# Calb FLC: C. albicans growth inhibition with fluconazole, primary screen, CaCi-2 strain, Alamar Blue fluorescence. C. albicans CaCi-2 (fluconazole-resistant clinical isolate) + fluconazole, 48 h. growth inhibition, % (no concentration beside the values). actives 0.57% (n = 300,000). AID 1979, 2009;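 active means most replicates above 75%; inconclusive means exactly half above 75%; inactive means most below 75%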;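 further: all wells also contain fluconazole at 8 µg/ml as a sub-toxic cotreatment; 0% = median of DMSO wells and 100% = median of geldanamycin control wells; wells of about 8 µL received 7.5 nL stock; the first replicate is given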
# Ecoli rRNA inh: reduced GFP signal of wild-type E. coli, primary screen, bacterial rRNA inhibitor project, GFP/RFP fluorescence, OD600, single point; E. coli WT GFP vs humanized-ribosome RFP mutants, 24 h; stronger effect = lower value; DMSO median 0, no signal -100; GFP signal change (wild-type ribosome), % (concentration not given with the values); actives 1.6% (n = 350,000);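 active means significant combined selectivity score with lowered wild-type GFP, culture density cut under 30%, mutant RFP and density less affected; inactive means any of these conditions unmet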; further: one replicate is shown; some compounds called inactive have numbers as strong as hits
# Vif TR-FRET: inhibitors of Vif binding to APOBEC3G peptide, primary screen, biochemical, TR-FRET, GST-Vif 1-94, biotin-A3G peptide, dose response retest (AID 1117319); one-dose inhibition, %; IC50 in µM for titrated hits; Virion infectivity factor (Human immunodeficiency virus type 1 group M subtype B (isolate …; actives 0.57% (n = 260,000); TR-FRET GST-Vif / biotin-A3G peptide binding; higher % means a stronger effect; test concentration not given here; strong numbers were not always called active;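 active means above the screen mean plus three standard deviations and confirmed in dose response; inconclusive means results disagree or hit not tested in dose response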;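 further: Vif residues 1-94 fused to GST binding biotinylated APOBEC3G peptide 110-148; 0% = full assay without inhibitor and 100% = GST in place of GST-Vif; retest series ran down from 100 µM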
# RanGTP-Impb inh: inhibitors of RanGTP-importin-beta interaction, primary screen, biochemical, FRET, CFP-Ran, YFP-importin-beta, homogeneous; actives 1.1% (n = 300,000); inhibition, % (concentration not given with the values); Ran GTPase (GTP-bound) - importin-beta complex; cell-free CFP-Ran/YFP-importin-beta FRET ratio;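 active means most replicates above 15%; inconclusive means exactly half above 15%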;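 further: 0% = DMSO wells and 100% = Ran loaded with GDP instead of GTP; wells of about 40 µL received 100 nL stock; the first replicate is given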
# MLL AF4-AF9 inh: inhibitors of AF4 peptide binding to AF9, primary screen, biochemical, AlphaScreen, biotin-AF4 peptide, FLAG-AF9, single point | inhibition, % at 10 µM | actives 0.47% (n = 350,000);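 active means every replicate reaching a set inhibition limit, whatever the replicate mean, cut at about 25% in these data; inconclusive means mean inhibition reaches that limit but some replicates miss it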;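 further: 0% = plate neutral control median and 100% = total signal loss; the record names both 10 and 1 µM as test concentration; the first replicate is given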
# Target sequence (P42568 whole entry, looked up): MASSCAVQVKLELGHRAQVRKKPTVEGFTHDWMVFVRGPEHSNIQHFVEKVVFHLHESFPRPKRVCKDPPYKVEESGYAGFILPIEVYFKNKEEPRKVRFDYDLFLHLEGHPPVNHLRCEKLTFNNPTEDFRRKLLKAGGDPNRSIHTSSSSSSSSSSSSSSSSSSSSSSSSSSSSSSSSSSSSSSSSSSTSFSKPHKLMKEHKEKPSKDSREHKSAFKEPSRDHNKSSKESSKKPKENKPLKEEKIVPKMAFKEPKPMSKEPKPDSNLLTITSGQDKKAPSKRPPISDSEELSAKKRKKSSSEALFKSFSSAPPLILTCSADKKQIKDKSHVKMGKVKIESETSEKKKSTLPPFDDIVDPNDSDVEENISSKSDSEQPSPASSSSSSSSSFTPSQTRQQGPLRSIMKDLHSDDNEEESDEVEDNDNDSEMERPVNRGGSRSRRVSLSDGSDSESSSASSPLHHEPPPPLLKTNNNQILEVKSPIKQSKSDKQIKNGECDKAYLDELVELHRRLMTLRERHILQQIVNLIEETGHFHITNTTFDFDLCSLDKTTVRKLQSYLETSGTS
# T cruzi repl: inhibitors of intracellular T. cruzi growth, primary screen, luminescence, NIH3T3 host cells | T. cruzi beta-gal in NIH3T3, 90 h | inhibition, % (no concentration beside the values) | actives 1.4% (n = 300,000) | AID 1885, 2009;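 active means mean inhibition across valid replicates above about 55%, limit read from the data; inconclusive means mean below that limit but half or more replicates reach it; inactive means mean below it, under half of replicates reach it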;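 further: signal also drops with host cell toxicity which is not excluded here; 0% = plate median of DMSO wells and 100% = zero luminescence signal; higher percent means less beta-gal luminescence so fewer parasites; stock transfer was 50 nL into about 50 µL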
# Bfl-1 A1 inh: caspase 3/7 activation in MEF A1-2A-BIM cells, primary screen, A1 inhibitor project, cell-based, luminescence, HTS | AID 2462, 2010 | caspase activation, % (no concentration beside the values) | actives 0.066% (n = 330,000) | Caspase-Glo 3/7 luminescence, 3 h; percent of clofoctol response, vehicle zero;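 active means over half of replicate activation scores above 10%, or exactly half above 10 with the replicate mean above 10; inconclusive means replicate mean below 10 yet half the replicates above 10; inactive means over half of replicates below 10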;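 further: wells of about 30 µL received 50 nL stock; many hits fall short of the cut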
# Beta cell apopt: inhibitors of cytokine-induced beta cell apoptosis, primary screen, luminescence | INS-1E cytokine-induced death, ATP luminescence, 48 h; percent of positive-control rescue, neutral wells zero | protection from apoptosis, % (test concentration not listed) | actives 0.8% (n = 300,000) | AID 435005, 2010;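 active means all replicates at 75% or more, or half of them and the mean; inconclusive means half reach 75% but not the mean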;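 further: 0% = cytokine-treated negative control wells and 100% = positive control rescue; higher means more ATP so stronger rescue from cytokine killing; wells of about 40 µL received 100 nL stock; the first replicate is given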
# Ecoli rRNA inh OD600: second read-out of Ecoli rRNA inh, no call of its own (marks repeat the call); OD600 change, %; measured here: OD600 growth;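 optical density of the mix in the first replicate; 0 = DMSO median and -100 = no signal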
# Ecoli rRNA inh RFP: also measured in Ecoli rRNA inh; calls as there; RFP signal change, %; measured here: RFP humanized mutant strains;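 first replicate; 0 = DMSO median and -100 = no signal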
# Starred values were filed as active, the others as inactive; ? = inconclusive; . = no result given; & = joins results of further samples. An excerpt; the hit share may differ from the screen's.
SMILES,Calb FLC,Ecoli rRNA inh,Ecoli rRNA inh OD600,Ecoli rRNA inh RFP,Vif TR-FRET,RanGTP-Impb inh,MLL AF4-AF9 inh,T cruzi repl,Bfl-1 A1 inh,Beta cell apopt
CC1(C#CC[N+]2(C)CCCCC2)CCC2C(O1)c1ccccc1OC2(C)C (stereo not given),-29,22,9,0.7,-8%,3.1,-6.2,7,-0.1,-12
O=C1C=C(c2ccccc2)C[C@@H](c2ccc(Cl)cc2)C1,.,-30,-38,-14,.,.,0.1,.,-0.5,-5
Cc1sc2nc(CSCC(=O)NC3(C#N)CCCCC3)[nH]c(=O)c2c1C,.,-1,-3,0.7,-8%,.,-18,.,0.5,-3
CCC(Sc1nc2cc(OC)c(OC)cc2c(=O)n1CCc1ccc(OC)c(OC)c1)C(=O)NCCOC (stereo not given),-6,-4,-1,0.7,-7%,0.1,-2.7,4,0.7,7
COc1ccc(OCC(=O)N2CCCC2=O)c([N+](=O)[O-])c1,6,12,7,0.0,.,5.8,-0.5,-7,0.8,2
CNC(=S)N(Cc1ccco1)Cc1cc2cc3c(cc2[nH]c1=O)OCCO3,10,16,10,5.3,.,-5.3,2.8,-31,0.8,-3
CCCCn1c(N)c(N(CC(C)C)C(=O)c2ccc(OCc3c(C)noc3C)cc2)c(=O)[nH]c1=O,-1,8,9,-0.2,-2%,4.1,-0.6,-5,-0.2,.
C=C1CSc2nc(=O)c3c4c(sc3n21)CCCC4,-18,.,.,.,10%,3.7,.,6,-0.4,0
CC(C)N1CCN(C(=O)c2cccc(Cl)c2)CC1,0,18,23,3.5,10%,-3.5,-1.0,-5,-1.2,-7
CCOC(=O)c1c(C)[nH]c(C(=O)COC(=O)c2ccccc2NC(=O)c2ccco2)c1C,15,.,.,.,-3%,-2.6,.,8,0.5,-4
CCc1ccc(-n2c(SCC(=O)N3Cc4ccccc4CC3C(=O)O)nnc2-c2ccncc2)cc1 (stereo not given),-4,17,-2,-4.9,.,?,6.1,-6,1.4,-6
O=C(CS(=O)(=O)c1ccccc1)Nc1ccc(Cl)cn1,1,1,-14,-2.1,.,-1.2,-0.1,-9,-0.2,7
CC(C)(C)C(=O)O/N=C(\N)c1ccc(Oc2cc(Cl)cc(Cl)c2)c([N+](=O)[O-])c1,-1,4,-6,-0.2,-2%,-0.3,.,7,?,9
NC1=C(c2ccc([N+](=O)[O-])cc2)C(=O)CO1,-6,9,10,-0.5,-10%,-0.2,-20,-12,0.4,-7
CCOCC(=O)NCc1ccc2c(c1)cc(C)n2C,7,-2,5,35,.,3.6,-7.8,7,-0.1,0
O=C(Cc1c(F)cccc1Cl)NCC1CCCO1 (stereo not given),-7,3,8,1.5,-1%,-0.1,-16,-6,0.1,3
CC(=O)c1ccc(OCc2cc(C(=O)NC(C)c3cnn(C)c3)no2)cc1 (stereo not given),6,3,2,0.6,.,2.8,-3.3,14,-0.6,1
CN1CCN(C(=O)c2cc3c(ccc4ccccc43)oc2=O)CC1,-4,.,.,.,-1%,4.5,.,-16,-0.8,-1
COc1ccccc1-c1nnc(SCC(=O)Nc2ccc(N3CCOCC3)cc2)n1N,.,9,7,3.6,5%,.,1.2,.,-0.6,-3
O=C(C1CCC(=O)N(C2CC2)C1)N1CCC(Oc2cccc(C(F)(F)F)c2)CC1 (stereo not given),-3,1,5,-1.9,.,-5.3,-6.6,-3,.,.
CN1CCN(c2ccc(Cl)cc2NC(=O)c2cc(=O)[nH]c3ccccc23)CC1,.,.,.,.,-7%,.,3.8,.,1.2,5
CC(=O)c1ccc(NC(=O)CSc2ccc3nnc(-c4cccnc4)n3n2)cc1,-6,5,-2,0.4,-2%,-0.6,-3.1,8,0.2,1
N#Cc1c(N)nc2c(c1-c1ccc3c(c1)OCO3)CCc1ccccc1-2,6,.,.,.,.,11,.,36,0.2,13
CCOc1ccc2c(c1)sc1nc(C(=O)OC)cc(=O)n12,1,.,.,.,-3%,-3.6,.,-7,-0.5,-3
CC(C)(C)c1ccc(C(=O)Nc2ccc(Oc3cccnc3)nc2)cc1,-1,-17,-20,2.2,-12%,0.8,-0.3,10,0.0,-3
CNC(=O)c1ccc(Nc2nnc(-c3ccc(C)c(S(=O)(=O)NCC4CCCO4)c3)c3ccccc23)cc1 (stereo not given),31,.,.,.,.,-3.1,.,5,1.1,5
CN(C1CCCCC1)S(=O)(=O)c1ccc(S(=O)(=O)N2CCCC2)cc1,-6,-1,-6,6.0,6%,-4.4,3.0,22,0.2,2
NC(=O)COc1ccccc1C(=O)O,-27,14,0,0.5,-5%,6.8,-3.4,-10,-0.6,0
COc1ccc([C@@H]2CC=C(C(=O)O)[C@H](c3ccc(C)cc3)N2S(=O)(=O)c2ccc(C)cc2)cc1OC,.,1,11,5.3,-3%,.,-5.9,.,-0.7,-5
COc1cc2c(cc1OC)CN(c1ccc(F)cc1[N+](=O)[O-])CC2,8,-18,-10,-4.2,7%,0.7,3.6,-11,-1.6,5
O=C(C1CCC1)N(CCc1ccccc1)Cc1nc2ccccc2c(=O)[nH]1,3,.,.,.,0%,0.8,.,-7,-0.2,-2
O=S(=O)(c1ccccc1)N(CC1CO1)c1ccccc1 (stereo not given),-3,-3,-3,-4.1,.,-0.2,-0.8,2,0.1,-8
O=C(Cn1cnc2c(cnn2-c2ccc(F)cc2)c1=O)OCc1ccccc1,7,.,.,.,-10%,1.9,.,-9,-0.2,-1
COc1ccc(N2CCN(c3nc(Nc4ccc(C)c(F)c4)nc(N4CCCC4)n3)CC2)cc1,-7,9,5,0.2,1%,-1.4,4.4,68*,-0.6,33
Cn1cc([N+](=O)[O-])c(C(=O)Nc2nc(-c3ccc(Cl)cc3)cs2)n1,-17,.,.,.,-4%,-0.9,.,-20,0.7,.
CCCCCCCCNC(=S)NCCN1CCCCC1,-18,-54,-78,-18,0%,1.6,6.9,41,.,.
Clc1cnc2nc(SC/C=C/c3ccccc3)[nH]c2c1,-1,8,14,5.8,-4%,-0.5,-2.7,7,-0.6,4
CN1CCCN(S(=O)(=O)c2ccccc2)CC1,3,7,13,0.5,.,?,2.6,-5,-0.5,-1
Cc1cc(OCC(=O)NCC2CCC(C(=O)O)CC2)c2c(C)cc(=O)oc2c1 (stereo not given),2,.,.,.,.,4.5,-2.2,18,0.8,.
COc1ccc2nc(NC(=O)c3cnccn3)sc2c1,15,.,.,.,6%,-4.9,.,3,0.0,3
COc1ccc(-c2sc3ccc(N4CCOCC4)cc3c2C#Cc2ccsc2)cc1,.,6,39,6.0,.,.,0.1,.,1.1,13
O=C(Cn1ncc2c([nH]c3ccccc32)c1=O)NCCc1ccc(Cl)cc1,4,5,2,0.3,.,-1.6,-10,-2,-0.4,-5
CN1C(=O)N(C)C2(c3ccccc3)NC(=O)NC12c1ccccc1 (stereo not given),-4,.,.,.,5%,-1.3,.,-9,-0.2,-5
O=C(Cn1nnc(-c2ccc(S(=O)(=O)N3CCCC3)cc2)n1)Nc1ccccc1-n1cccc1,-6,.,.,.,-2%&-7%,-0.2,.,9,0.3,6
O=C(COC(=O)c1ccc2ccccc2n1)Nc1ccccc1F,.,-4,0,0.2,.,.,-0.2,.,1.3,-10
Cc1ccc(/C=N/NC(=O)CNC(=O)c2ccc(S(=O)(=O)N(C)C)cc2)cc1,-22,1,1,-0.3,6%,0.6,-8.3,-20,-0.3,-3
Cc1cc(C)cc(NC(=O)N2CCCC2C(=O)NCc2ccco2)c1 (stereo not given),8,.,.,.,.,2.1,-1.8,2,0.7,-3
CCn1c2ccccc2c2cc(NC(=O)COC(=O)c3cc(OC)c(OC)cc3OC)ccc21,-4,-7,3,-2.0,0%,0.4,0.8,10,0.4,2
CCOc1ccc(C(=O)Nc2ccc(S(=O)(=O)Nc3nccc(C)n3)cc2)cc1OCC,2,16,8,1.1,0%,3.1,1.7,-10,0.2,3
COc1cc(OC)nc(Oc2ccccc2C(=O)Oc2ccc(C)cc2)n1,6,-24*,-14*,-3.0*,6%,-3.5,-8.1,0,1.7,1
CC(=O)Nc1ccc(S(=O)(=O)Nc2nc3n(n2)C(c2ccccc2)CC(=O)N3)cc1 (stereo not given),34,.,.,.,8%,1.9,.,-18,-0.8,-6
Cc1ccc2oc(C(=O)N(Cc3ccncc3)CC3CCCO3)c(C)c2c1 (stereo not given),12,-2,-22,-1.9,.,-2.9,-0.4,13,-2.8,0
O=C(CCc1nnc(-c2ccccc2)o1)NCc1cc(F)ccc1F,-5,1,7,-2.7,8%,2.1,0.0,3,1.5,1
CCC(=O)Nc1nc2n(n1)C(c1ccc(OC)cc1)C=C(c1ccccc1)N2 (stereo not given),?,.,.,.,13%,1.3,.,10,1.1,-5
Cc1c(S(=O)(=O)Nc2ccc3c(c2)OCCO3)c(=O)n(C)c(=O)n1C,4,-3,6,-3.6,15%,10,2.9,-12,0.2,6
CC1CC(=O)C(C2c3ccccc3CCN2C(=O)CCl)C(=O)C1 (stereo not given),0,11,12,1.5,?,5.1,-0.1,-10,-0.1,-4
Cn1c(N)c(C(=O)COC(=O)c2cccnc2Cl)c(=O)n(C)c1=O,-15,13,13,0.6,8%,-1.5,-3.4,-8,2.7,2
Cc1ccc(S(=O)(=O)N2CCOCC2)cc1NC(=O)COC(=O)CNC(=O)c1ccccc1,-16,.,.,.,.,-3.2,.,-4,-0.9,0
CCOC(=O)N1CCN(C(=O)COc2cccc3c2CCN(Cc2ccc(F)cc2)C3=O)CC1,-18,.,.,.,.,-3.1,.,9,0.2,-2
CC(C)CN(CC(C)C)C(=O)CN1C(=O)NC2(CCc3ccccc3C2)C1=O (stereo not given),2,8,11,-2.0,-2%,-1.8,-4.6,-2,0.2,.
CN(C(=O)CN1CCC(NC(=O)C2CCCCC2)CC1)C1CCCCC1,-26,.,.,.,-8%,-4.0,.,-2,-0.4,-8
COc1cc(/C=N/NC(=O)CN2CCOCC2)ccc1OCc1ccccc1,16,-2,-4,-3.5,-15%,6.8,1.0,-11,0.0,.
